RE007 growth inh: less growth of the S. pombe RE007 Vpr strain. AID 651644. hit rate 0.21% among 360,000. S. pombe RE007 Vpr strain, BacTiter-Glo ATP luminescence, 24 h; control for the full effect not named in the record. Potency, µM (series often up to 92.2 µM), without a hit: at the top dose activity change, negative = less growth; active = well fitted falling curve with a large enough effect; inconclusive = small, poorly fitted or top-dose-only effect; inactive = no such curve, though single readings can be large or run the other way;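 note: % is set by controls: 0 for no effect and ±100 for the full control effect; nearly all actives have a fitted effect of over 50% in size; the assay follows cell death caused by Vpr and the record does not say whether a fall means rescue or toxicity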
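Fission yeast RE007 carrying one integrated HIV-1 vpr copy, seeded at OD 0.01 in PMG+AL medium with 23 nL pinned compound. Grown 24 h at 30 degrees; viability read by BacTiter-Glo luminescence after 5 min.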
SARS PLP yeast: inhibitors of SARS-CoV papain-like protease in yeast; hit rate 0.19% among 330,000; AID 485353; Potency, µM (highest dose often 32.9 µM), inactives show at the highest dose activity, positive = growth rescue; S. cerevisiae expressing SARS-CoV PLpro, growth rescue; control for the full effect not named in the record; active means well fitted rising curve with a large enough effect; inconclusive means small, poorly fitted or top-dose-only effect; inactive means no such curve, though single readings can be large or run the other way; note: 0% is about no effect; nearly all actives have a fitted effect of over 55% in size; growth read by luminescence after 48 h
MARV entry inh: inhibitors of Marburg virus binding or cell entry; Marburg virus pseudotyped entry inhibition, cell reporter; control for the full effect not named in the record; about a third of the inactives were read at about 46 µM; hit rate 1.8% among 300,000; Potency, µM (doses to about 37.8 µM), without a hit: top-dose activity change, negative = inhibition, usual class: inhibitors; active = well fitted inhibition curve with a large enough effect; inconclusive = small, poorly fitted or top-dose-only effect, or effect the other way; inactive = flat fitted curve, though single readings scatter; tested in HEK293 cells; about a fifth of its hits are not listed in these tables; note: % is set by controls: 0 for no effect and ±100 for the full control effect; luciferase read-out
2A StopGo: lowers the luciferase signal of an FMDV 2A StopGo reporter. human cells with a luciferase reporter of 2A StopGo recoding; control for the full effect not named in the record. Potency, µM (series often up to 57.9 µM), for inactives: at the highest dose signal change, negative = less light. hit rate 1.2% among 410,000; active = well fitted falling curve with a large enough effect; inconclusive = small, poorly fitted or top-dose-only effect; inactive = no such curve, though single readings can be large or run the other way; tested in HEK293T cells; note: % is set by controls: 0 for no effect and ±100 for the full control effect; nearly all actives have a fitted effect of over 45% in size; luciferase light after 4 h
Lassa entry inh: blocks Lassa virus binding to or entry into cells; Lassa virus pseudotype entry inhibition, cell reporter; control for the full effect not named in the record; hit rate 1.2% among 300,000; Potency, µM (series often up to 37.9 µM), for the others: at the top dose activity change, negative = inhibition, hits mostly inhibitors; active means well fitted inhibition curve with a large enough effect; inconclusive means small, poorly fitted or top-dose-only effect, or effect the other way; inactive means flat fitted curve, though single readings scatter; tested in HEK293 cells; note: % is set by controls: 0 for no effect and ±100 for the full control effect; nearly all actives have a fitted effect of over 50% in size; luciferase read-out
Cruzain inh noDet: blocks cruzain activity in detergent-free assay. AID 1476. hit rate 2.3% among 200,000. Potency, µM, without a hit: max response, negative = inhibition, most hits filed as inhibitors. purified cruzain, Z-FR-AMC fluorescence, no detergent. P25779;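 note: plate controls were enzyme without inhibitor for no effect and buffer without enzyme for full effect; nearly all actives have a fitted effect of over 40% in size; top concentration of the series not given in the record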
Target sequence (P25779 123-467 limits assumed): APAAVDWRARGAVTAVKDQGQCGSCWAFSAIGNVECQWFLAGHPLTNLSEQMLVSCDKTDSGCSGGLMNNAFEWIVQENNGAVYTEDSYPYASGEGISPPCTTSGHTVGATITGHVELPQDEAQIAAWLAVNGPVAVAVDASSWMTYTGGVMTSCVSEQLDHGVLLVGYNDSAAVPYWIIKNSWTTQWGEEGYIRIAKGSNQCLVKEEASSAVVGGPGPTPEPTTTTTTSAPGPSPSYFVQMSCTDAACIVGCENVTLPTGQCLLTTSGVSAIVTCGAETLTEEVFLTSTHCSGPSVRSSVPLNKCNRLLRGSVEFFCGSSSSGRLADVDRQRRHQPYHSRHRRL
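Purified cruzain at 1.5 nM, pre-incubated 15 min with compound at room temperature in 100 mM sodium acetate pH 5.5, 5 mM DTT, 0.00005% Triton X-100. Reaction started with 2 uM Z-FR-AMC; AMC fluorescence increase over 60 s gives rate.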
NS1 inh: influenza NS1 inhibition; hit rate 0.4% among 270,000; S. cerevisiae slowed by influenza A NS1, growth recovery by OD600; Potency, µM (highest dose often 46.1 µM), without a hit: top-dose activity, positive = more growth; active means well fitted rising curve with a large enough effect; inconclusive means small, poorly fitted or top-dose-only effect; inactive means no such curve, though single readings can be large or run the other way; note: nearly all actives have a fitted effect of over 50% in size
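Growth recovery, yeast-based: influenza A NS1 expressed in S. cerevisiae causes slow growth, and suppressors are detected by OD600. The parent strain without NS1 is used as positive control.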
Cruzain Triton: cruzain (T. cruzi) inhibition with detergent; purified cruzain, Z-FR-AMC fluorescence, 0.01% Triton; Potency, µM, inactives show max response, negative = inhibition, most hits filed as inhibitors; hit rate 0.43% among 200,000; AID 1478;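 note: plate controls were neutral wells for no effect and buffer without enzyme for full effect; nearly all actives have a fitted effect of over 40% in size; top concentration of the series not given in the record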
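15 min RT preincubation of 1.5 nM cruzain with compound, then 2 uM Z-FR-AMC added; kinetic AMC fluorescence, 60 s delta. Triton X-100 0.01%, pH 5.5.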
Starred values were filed as active, the others as inactive; ? = inconclusive; . = no result given; [ ] = dose if it differs, or a comment. Unless noted, calls come from the whole dose curve; as a rule, active = well fitted curve in the direction sought with a large enough effect; inconclusive = small, poorly fitted or top-dose-only effect, or another doubt; inactive = no such curve, though single readings can be large; an effect the other way counts as inactive or inconclusive. Potency is the fitted concentration of half-maximal effect.

SMILES | RE007 growth inh | SARS PLP yeast | MARV entry inh | 2A StopGo | Lassa entry inh | Cruzain inh noDet | NS1 inh | Cruzain Triton
O=C(NC(NC(=O)c1ccccc1)c1cccc([N+](=O)[O-])c1)c1ccccc1 | -4% | -11% | ? | 8% | 0% | ? | 14% | 1.5%
COc1ccccc1C(=O)Nc1cc(-c2cccc(Br)c2)nn1-c1ccccc1 | . | . | . | -21% | 9%[46.1 µM] | ? | . | 2.6%
CC(=O)OCC(=O)Nc1ccc(SC(F)F)cc1 | 4% | -5% | ? | -1% | 1%[46.1 µM] | . | 1% | .
CCn1cc(S(=O)(=O)c2ccccc2)c(=O)c2cc(C)ccc21 | . | . | -3%[46.1 µM] | 0% | -17%[46.1 µM] | -17% | . | -3.6%
Cc1cccc(NC(=O)CSc2ccc(-c3ccccn3)nn2)c1C | 0% | 2% | -19%[46.1 µM] | 2% | -20% | . | . | .
Fc1cccc(NC(=S)Nc2ccc(Br)cc2)c1 | 7% | -21% | -9% | 3% | 4% | -1% | -39% | -4.4%
COc1ccccc1NC(=O)Cc1nnc(SCC(=O)NC2CCCC2)n1C | -3% | 0% | 10% | -3% | 1% | . | -2% | .
COc1ccc(CCNC(=O)c2ccc3nc(Cc4ccccc4)oc3c2)cc1OC | . | . | . | ? | ? | ? | . | 0.7%
Cc1ccc(F)cc1NC(=O)c1c(-c2ccccc2)noc1C | -18% | -8% | . | 0% | . | 9% | -62% | -1.9%
COc1cccc(C2c3[nH]c4ccccc4c3CCN2CCCn2cccn2)c1 (stereo not drawn) | -1% | -1% | ? | -18% | ? | . | 2% | .
CCOc1ccc(N2C(=O)/C(=C/c3cccs3)N(C)C2=S)cc1 | -6% | 2% | 19% | -10% | -10% | -25% | 12% | -4.9%
COc1ccc(OC2CCN(S(=O)(=O)c3ccc(C(C)=O)cc3)CC2)cc1 | -1% | -2% | . | -21% | . | . | -7% | .
Cc1ccc(-n2c(=O)cc(N3CCCCCC3)[nH]c2=O)cc1 | -21% | -2% | . | -4% | . | 10% | -40% | -2.9%
CN(C)c1ccc(C(=O)N(Cc2ccccc2)Cc2ccccc2)cc1 | -8% | -9% | . | 12% | . | . | -1% | .
CCOC(=O)c1cc(-c2ccccc2)n(CCC(=O)Nc2cc(OCC)ccc2OCC)c1C | . | . | . | -10% | 20%[46.1 µM] | -6% | . | -5.6%
C/C(=N\NC(=O)c1c([N+](=O)[O-])c(C)nn1C)c1ccc(NC(=O)c2ccc(C)o2)cc1 | -7% | -6% | . | 21% | . | . | 5% | .
O=C(NC1CCCCC1)c1ccccc1-c1ccccc1 | -4% | -8% | ? | -14% | -9% | 0% | -6% | -1.2%
CCc1ccc(C(C(=O)NC2CCCC2)N(C(=O)c2csnn2)C2CC2)cc1 (stereo not drawn) | 16% | -1% | 1%[46.1 µM] | 4% | -2% | . | -3% | .
COC(=O)c1ccc(N2Cc3ccccc3/C2=N\C(=O)Nc2ccccc2)cc1 | 1% | -24% | 0% | -10% | 19% | ? | 0% | -7.6%
Cc1ccc(CSc2nc3ccc(NC(=O)C(C)C)cc3s2)cc1 | . | . | ? | 1% | -27%[46.1 µM] | -13% | . | -3.0%

In a second layout: results already given.
SMILES: COc1ccccc1C(=O)Nc1cc(-c2cccc(Br)c2)nn1-c1ccccc1
  RE007 growth inh = .
  SARS PLP yeast = .
  MARV entry inh = .
  2A StopGo = -21%
  Lassa entry inh = 9%[46.1 µM]
  Cruzain inh noDet = ?
  NS1 inh = .
  Cruzain Triton = 2.6%
SMILES: CC(=O)OCC(=O)Nc1ccc(SC(F)F)cc1
  RE007 growth inh = 4%
  SARS PLP yeast = -5%
  MARV entry inh = ?
  2A StopGo = -1%
  Lassa entry inh = 1%[46.1 µM]
  Cruzain inh noDet = .
  NS1 inh = 1%
  Cruzain Triton = .
SMILES: CCn1cc(S(=O)(=O)c2ccccc2)c(=O)c2cc(C)ccc21
  RE007 growth inh = .
  SARS PLP yeast = .
  MARV entry inh = -3%[46.1 µM]
  2A StopGo = 0%
  Lassa entry inh = -17%[46.1 µM]
  Cruzain inh noDet = -17%
  NS1 inh = .
  Cruzain Triton = -3.6%
SMILES: Cc1cccc(NC(=O)CSc2ccc(-c3ccccn3)nn2)c1C
  RE007 growth inh = 0%
  SARS PLP yeast = 2%
  MARV entry inh = -19%[46.1 µM]
  2A StopGo = 2%
  Lassa entry inh = -20%
  Cruzain inh noDet = .
  NS1 inh = .
  Cruzain Triton = .

(next part)
SMILES | RE007 growth inh | SARS PLP yeast | MARV entry inh | 2A StopGo | Lassa entry inh | Cruzain inh noDet | NS1 inh | Cruzain Triton
COc1cc(-c2c(C(C)=O)c(C)nc3c2C(=O)c2ccccc2-3)cc(OC)c1OC | 0% | 1% | -4%[46.1 µM] | 29% | 12%[46.1 µM] | . | 2% | .
Cn1c(SCC(=O)N2c3ccccc3CCc3ccccc32)nnc1-c1ccc(O)cc1 | 3% | 5% | ? | -24% | -2% | -6% | 0% | -2.0%
Cc1nnc(Nc2ccc(O)cc2)[nH]c1=O | -16% | -1% | 3%[46.1 µM] | 10% | 6% | . | 5% | .
O=C(CCSCc1cccc(F)c1)NCc1ccccc1 | . | . | . | -23% | 20%[46.1 µM] | 4% | . | -1.0%
COc1cccc(C(=O)NNC(=O)Cc2ccc([N+](=O)[O-])cc2)c1 | 22% | -5% | -1% | 5% | 2% | -5% | -2% | 2.7%
CC1=Nn2c(nnc2-c2ccccc2F)SC1 | 9% | 2% | 14% | 31%[activator] | 1% | -4% | 0% | 7.2%
O=C(CCC(=O)NNC(=O)Cc1ccccc1)NCc1ccccc1 | 6% | -1% | ? | -3% | 1% | . | -5% | .
NP(=O)(Oc1ccccc1)c1ccccc1 (stereo not drawn) | 3% | . | 5% | -25% | -2% | . | . | .
O=C(OCc1cc(=O)n2nc(-c3cccs3)sc2n1)c1cccc(F)c1 | . | . | . | 0% | -8%[46.1 µM] | 1% | . | -2.9%
Cc1ccc(C(=O)Nc2ccc(Oc3cccc(C(F)(F)F)c3)nc2)cc1 | -5% | 0% | ? | ? | ? | . | -2% | .
COc1ccc(C(=O)Nc2ccc(N3CCN(c4ccccc4)CC3)c(C(=O)O)c2)cc1 | . | . | . | 15% | 17%[46.1 µM] | 16% | . | 1.8%
COc1ccc(-n2nnc3c(SCC(=O)NCC4CCCO4)ncnc32)cc1 (stereo not drawn) | 1% | -2% | ? | -28% | -16% | 0% | 4% | 1.4%
CCOC(=O)CSc1ccc(C(=O)Nc2ccc(Cl)cc2)cn1 | 22% | 1% | -11%[46.1 µM] | -9% | 3%[46.1 µM] | . | -5% | .
COC(=O)c1cc(S(=O)(=O)N2CCN(c3ccc(OC)cc3)CC2)c[nH]1 | . | . | . | -8% | 1%[46.1 µM] | 10% | . | -2.8%
CCC1(C)N=C(N)Nc2nc3cc(C)c(C)cc3n21 (stereo not drawn) | 3% | 1% | . | -16% | . | . | -2% | .
O=C(CSc1nnc(CNC(=O)c2ccc(F)cc2)o1)NCc1ccc(F)cc1 | 3% | 1% | 2% | 0% | -14% | . | 0% | .
CCc1ccc(NC(=O)COC(=O)CN2C(=O)COc3ccccc32)cc1 | 0% | 10% | 14% | -1% | 0% | -4% | -60% | -3.0%
CC(=O)c1cccc(NC(=O)c2c(-c3c(F)cccc3Cl)noc2C)c1 | 23% | 1% | 1% | -17% | ? | . | . | .
Cc1ccc(-n2c(SCC(=O)c3c(N)n(C)c(=O)n(C)c3=O)nc3sc4c(c3c2=O)CCCC4)c(C)c1 | -8% | 2% | ? | 12% | -7% | -29% | ? | -2.9%
C=CS(=O)c1sc(Cl)c(N2CCOCC2)c1[N+](=O)[O-] (stereo not drawn) | 13µM* | -5% | ? | 28µM* | 12% | . | 7% | .
COc1ccc(CSc2nc3ccncc3n2CC(=O)Nc2cc(C)cc(C)c2)cc1 | . | . | ? | 38%[activator] | 2%[46.1 µM] | -20% | . | -20%
CCCCc1c(O)nc(SCC(=O)N2CCOCC2)n(-c2ccccc2OC)c1=O | 8% | 10% | -4%[46.1 µM] | -15% | 10%[46.1 µM] | . | 14% | .
C=CCn1c(SCC(=O)c2c(N)n(C)c(=O)n(C)c2=O)nnc1-c1ccoc1C | -4% | -5% | -27% | -23% | 3% | . | . | .
Cc1sc2nc(-c3ccccc3)oc(=O)c2c1C | 8% | 0% | ? | 51%[activator] | ? | . | . | .
Cc1n[nH]c(C)c1CCN(C)Cc1cn(C)nc1-c1ccccc1F | -17% | 0% | 17% | -12% | -22% | . | 5% | .
Cc1ccc(C=NNc2nc3c([nH]2)c(=O)n(C)c(=O)n3C)cc1 | 20% | . | ? | -25% | -18%[46.1 µM] | . | . | .
Cc1cc(N/N=C/c2c(O)ccc3ccccc23)nc(-c2ccccc2O)n1 | 1% | ? | -5% | 0% | -17% | 16µM* | 18% | -0.3%
Cc1ccccc1-c1nc2sc3c(c2c(=O)n1N)CCCC3 | -26% | -15% | ? | -4% | ? | -1% | -6% | -5.7%
C=CCOc1cccc(C2/C(=C(/O)c3ccccc3)C(=O)C(=O)N2CCN2CCOCC2)c1 (stereo not drawn) | 3% | 2% | 18% | 29% | 11% | -7% | 0% | -1.1%
O=C(COc1ccc([N+](=O)[O-])cc1)Nc1ccc(N2CCN(C(=O)c3ccco3)CC2)cc1 | -2% | 3% | 6%[46.1 µM] | ? | 4%[46.1 µM] | . | 14% | .
CCn1c(-c2cc(-c3cccc(OC)c3)nc3ccccc23)n[nH]c1=S | 5% | 21% | 16% | 5% | 5% | 5% | 11% | -13%
Oc1ccccc1/C=N/NP(=S)(c1ccccc1)c1ccccc1 | -16% | 2% | 5%[46.1 µM] | 120%[activator] | 2% | . | . | .
C=CCc1cccc(/C=N/c2ncccc2O)c1O | -6% | 1% | 8% | . | 2% | -10% | 9% | -3.3%
